Source: PubChem (ICCB-Longwood Screening Facility, Harvard Medical School)
HCMV NEC inh – inhibitors of HCMV UL50-UL53 interaction, biochemical, HTRF. inhibition, % (concentration not given with the values). AID 1918969, 2023. HCMV UL50-UL53 nuclear egress complex (human cytomegalovirus). hit rate 0.15% among 190,000. normalized percent inhibition;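 active means both replicates at 50% or more, plus weaker picks with an unusually low signal ratio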;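 further: stock transfer was 100 nL into about 20 µL; 0% = negative control wells and 100% = wells with untagged competitor protein; inactives centre near -12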
GIV-Gai inh – inhibitors of GIV peptide binding to Galpha-i3, primary screen, biochemical, fluorescence polarization, FITC-GIV GBA peptide, rat Galphai3 | Guanine nucleotide-binding protein G(i) subunit alpha-3 (Rattus norvegicus), P08753 | 90 min; hits give low values; scaled: aluminum fluoride 0%, vehicle 100% | percent of control (FP), % (test concentration not listed) | hit rate 0.42% among 210,000;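 active means replicate mean at 85% of control or lower, very high polarization wells dropped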;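 further: wells of about 15 µL received 100 nL stock; the first replicate is given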
Target sequence (P08753 whole entry, looked up): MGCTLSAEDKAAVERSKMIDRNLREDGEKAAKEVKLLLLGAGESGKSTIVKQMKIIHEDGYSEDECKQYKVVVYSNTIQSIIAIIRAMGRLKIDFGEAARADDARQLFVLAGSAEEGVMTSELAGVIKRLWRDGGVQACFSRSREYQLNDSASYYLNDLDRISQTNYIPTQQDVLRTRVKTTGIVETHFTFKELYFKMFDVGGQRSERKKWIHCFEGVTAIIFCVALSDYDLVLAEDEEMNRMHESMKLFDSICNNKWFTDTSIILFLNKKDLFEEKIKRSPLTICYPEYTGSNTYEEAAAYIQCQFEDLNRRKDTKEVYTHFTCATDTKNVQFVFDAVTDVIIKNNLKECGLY
Sa growth 42C – S. aureus growth inhibition at 42 and 30 °C, primary screen, LtaS inhibitor project, RN4220, two temperatures; OD600, 20 h, 42 °C; hits give low values; relative growth, % (test concentration not listed); hit rate 0.53% among 170,000; AID 720641, 2013;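 active means growth at 42 °C up to 50% and 20 or more points under that at 30 °C, or under 10% at both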;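 further: 300 nL library stock went into each well; scaled to the means of positive and negative controls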
Sa growth 42C second temp – recorded beside Sa growth 42C, whose call it bears; relative growth, %; measured here: growth at 30 °C;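 optical density after 20 h as mean of two plates; 100% = untreated growth and lower means inhibition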
Starred values were filed as active, the others as inactive; . = no result given. Not a hit list. About 0.83% of those tested had a hit in this group.

1) CC(C)(C)C(=O)CN1C(=O)C2(OCCO2)c2ccccc21
2) CCCCn1c(=O)c2c(ncn2CC(C)=O)n(CCCC)c1=O
3) CCOc1cc(/C=C2\OC(=O)c3c2cc(C)[nH]c3=S)ccc1O
4) Cc1c(C#N)oc2ccccc12
5) COc1ccc(S(=O)(=O)N2CCC(C(=O)NC(C)c3ccccc3)CC2)cc1 (configuration not stated)
6) CCOC(=O)c1c(C)oc2nc(C)nc(NCCCN3CCN(c4ccccc4OC)CC3)c12
7) CC(=O)N1CCOc2cc(S(=O)(=O)Nc3c(C)cccc3C(C)C)c(Cl)cc21
8) Cc1cccc(NC(=O)CC23CC4CC(CC(C4)C2)C3)n1
9) CCc1ccc(C(=O)c2cn(CC(=O)Nc3ccc4c(c3)OCO4)c3cc(OC)c(OC)cc3c2=O)cc1
10) CCOc1ccc2nc(N(Cc3cccnc3)C(=O)c3cccs3)sc2c1

Screen / compound no.	1	2	3	4	5	6	7	8	9	10
HCMV NEC inh	-5	-35	-42	9	-13	.	.	-2	2	.
GIV-Gai inh	96	102	.	.	106	102	109	97	112	103
Sa growth 42C	.	85	109	95	119	90	102	80	83	119
Sa growth 42C second temp	.	84	74	91	89	93	100	89	84	93

Part of the list above, reformatted.
nr	smiles	HCMV NEC inh	GIV-Gai inh	Sa growth 42C	Sa growth 42C second temp
7	CC(=O)N1CCOc2cc(S(=O)(=O)Nc3c(C)cccc3C(C)C)c(Cl)cc21	.	109	102	100
8	Cc1cccc(NC(=O)CC23CC4CC(CC(C4)C2)C3)n1	-2	97	80	89
9	CCc1ccc(C(=O)c2cn(CC(=O)Nc3ccc4c(c3)OCO4)c3cc(OC)c(OC)cc3c2=O)cc1	2	112	83	84
10	CCOc1ccc2nc(N(Cc3cccnc3)C(=O)c3cccs3)sc2c1	.	103	119	93

The results go on:
11) CN(C)/C=C(\C#N)C(=O)C1CC1
12) Cc1cc(N2CCCCC2)nc(N)n1
13) Cc1sc2ncn(CC(=O)N(C)c3ccc(Br)cc3)c(=O)c2c1S(=O)(=O)N1CCC(C)CC1
14) O=C1CN(C(=O)Cc2ccc(S(=O)(=O)N3CCCCC3)cc2)c2ccccc2N1
15) CN(C)CCNC(=O)c1ccc2c(c1)N(Cc1ccc(F)cc1)C(=O)c1ccccc1S2(=O)=O
16) CCCN(CCC)C(=O)c1cc2c(=O)oc3ccccc3c2s1
17) O=C(CSc1ccnc(=O)[nH]1)NCc1ccccc1
18) C=CCNC(=O)c1cnn(C)c1-n1cccc1
19) COC(=O)c1cc(NC(=O)CC2C(=O)OCCN2Cc2ccccc2)cc(C(=O)OC)c1 (configuration not stated)
20) CCC(C)(C)NS(=O)(=O)c1cc(-c2onc(C)c2C)ccc1C

Screen / compound no.	11	12	13	14	15	16	17	18	19	20
HCMV NEC inh	-59	-2	-20	8	.	2	-1	-10	39	-12
GIV-Gai inh	115	101	106	.	98	97	105	99	102	102
Sa growth 42C	95	.	95	119	113	90	97	106	91	85
Sa growth 42C second temp	94	.	94	98	99	90	100	86	101	88

21) CCCCc1ccc(C(=O)On2c(-c3ccc(OC)c(OC)c3)nc3ccccc3c2=O)cc1
22) COc1ccc(NC(=O)NC(c2ccc(F)cc2)c2nnc(-c3ccccc3)o2)cc1OC (configuration not stated)
23) Cn1c(C(=O)N2CCC(C(=O)NCCc3ccc(S(N)(=O)=O)cc3)CC2)cc2sccc21
24) O=C(c1c(F)cccc1F)N1CCCC(c2nc(-c3cccs3)no2)C1 (configuration not stated)
25) CCc1n[nH]c(=O)c2cc3sccc3n12
26) CCOC(=O)c1ccc(NC(=O)Cn2c(C(=O)OC)cc3sccc32)cc1
27) O=C(NCc1ccc(F)cc1)C1CCCN(C(=O)c2cc(-c3cccnc3)n[nH]2)C1 (configuration not stated)
28) CC(=O)c1cccc(NC(=O)c2nc3ccccc3nc2N2CCCCC2)c1
29) COc1ccccc1NC(=O)C1CC(=O)N(Cc2ccc3c(c2)OCO3)C(=Nc2ccc(F)cc2)S1 (configuration not stated)
30) O=C(COc1c(F)c(F)cc(F)c1F)c1ccc2c(c1)OCCO2

Screen / compound no.	21	22	23	24	25	26	27	28	29	30
HCMV NEC inh	-15	17	2	-11	-22	-1	2	.	-27	-9
GIV-Gai inh	106	106	106	101	96	102	101	101	101	.
Sa growth 42C	.	.	102	110	100	94	.	91	.	102
Sa growth 42C second temp	.	.	82	79	87	81	.	90	.	91

31) N#CCc1c(Cl)sc2ccc(Cl)cc12
32) CCn1c(=O)cc(N2CCC(C)CC2)[nH]c1=O
33) CN1CCN(Cc2c(O)ccc3c(=O)c(-c4ccccc4)coc23)CC1
34) CSc1nc2c(c(=O)[nH]1)C(c1ccc(C(C)C)cc1)C1=C(CC(C)(C)CC1=O)N2 (configuration not stated)
35) COCCNC(=O)Cc1nc2ccccc2n1CC(=O)Nc1ccc(S(=O)(=O)N2CCCC2)cc1
36) O=C(C1CCCN(S(=O)(=O)Cc2ccccc2)C1)N1CCc2ccccc21 (configuration not stated)
37) CC(Nc1nc(F)cc(=O)[nH]1)C(=O)O (configuration not stated)
38) O=c1[nH]c(=O)n([C@@H]2O[C@H](CO)[C@@H](O)[C@H]2O)cc1Br
39) CCc1ccccc1NC(=O)NCc1c(-n2cccc2)sc2c1CCCC2
40) Cc1ccc2nc(N3CCC(C(=O)NCc4ccc(F)cc4)CC3)[nH]c2c1

Screen / compound no.	31	32	33	34	35	36	37	38	39	40
HCMV NEC inh	8	.	-12	-19	1	-6	-10	10	.	.
GIV-Gai inh	97	107	107	101	.	103	.	.	100	101
Sa growth 42C	93	98	90	91	114	122	88	87	87	110
Sa growth 42C second temp	92	92	82	94	92	88	81	102	89	58

41) NC(=O)c1cc(-c2csc(N3CCCC3)n2)ccc1O
42) Nc1nc(NC(=S)Nc2ccccc2)cc(=O)[nH]1
43) O=C(CN1C(=O)CSc2ccc(C(=O)N3CCCC3)cc21)Nc1ccccn1
44) CCN1CC(=O)Nc2cc(C(=O)OC)ccc21
45) O=C1CSC(c2ccccc2)N1Nc1nc(N2CCOCC2)nc(N2CCOCC2)n1 (configuration not stated)
46) CN(C)c1ccc(CNC(=O)CCC(=O)N2Cc3ccccc3Oc3ncccc32)cc1
47) CCCn1c(=O)c2ccc(C(=O)NC(C)C)cc2n2c(SCC(=O)c3ccc(C)cc3C)nnc12
48) CCCN1CNc2nc3ccccc3n2C1
49) O=C1NC(CCc2ccccc2)C(=O)N1CCOc1ccccc1 (configuration not stated)
50) CCN(CC)S(=O)(=O)c1ccc2[nH]c3c(c2c1)CCCC3

Screen / compound no.	41	42	43	44	45	46	47	48	49	50
HCMV NEC inh	-22	1	-38	-4	-23	.	-25	-32	-4	.
GIV-Gai inh	.	96	104	95	98	98	110	103	.	93
Sa growth 42C	109	84	.	.	81	87	.	88	113	95
Sa growth 42C second temp	60	102	.	.	92	88	.	88	104	83

51) COc1ccc(OC)c(CC(=O)Nc2c(N)nc(N)nc2N)c1
52) Cc1nc(-n2nc(C)c(CCC(C)C)c2C)sc1C(=O)Nc1cccc(Cl)c1
53) COc1ccc(CCNC(=O)Cn2c(=O)c3cccn3c3ccccc32)cc1OC
54) CCOC(=O)CN(C)Cc1ccc(Cl)c(Cl)c1
55) Cc1ccc(C)c(N2C(=O)CS/C2=C(/C#N)S(=O)(=O)c2ccccc2)c1
56) N/C(=N\OC(=O)c1ccsc1)c1ccc(Br)cc1
57) NNC(=O)c1ccc(-c2ccccc2F)cc1
58) CC1(C)Oc2ccc(C(=O)N3CCOCC3)cc2NC1=O
59) N#Cc1ccc(COC(=O)c2cccnc2N2CCOCC2)cc1
60) CC(=O)c1cccc(NC(=O)C2CCN(C(=O)c3cnn(-c4ccccc4)c3-n3cccc3)CC2)c1

Screen / compound no.	51	52	53	54	55	56	57	58	59	60
HCMV NEC inh	-43	31	0	20	-9	3	-44	1	-29	31
GIV-Gai inh	.	102	99	108	.	103	99	103	.	100
Sa growth 42C	91	111	92	102	96	107	86	89	80	100
Sa growth 42C second temp	89	91	97	107	74	87	81	89	94	84

Two of the compounds above, in markdown.
| entry | structure | HCMV NEC inh | GIV-Gai inh | Sa growth 42C | Sa growth 42C second temp |
| --- | --- | --- | --- | --- | --- |
| 30 | O=C(COc1c(F)c(F)cc(F)c1F)c1ccc2c(c1)OCCO2 | -9 | . | 102 | 91 |
| 31 | N#CCc1c(Cl)sc2ccc(Cl)cc12 | 8 | 97 | 93 | 92 |

In a second layout: five of the compounds above.
Fields: HCMV NEC inh	GIV-Gai inh	Sa growth 42C	Sa growth 42C second temp
39: CCc1ccccc1NC(=O)NCc1c(-n2cccc2)sc2c1CCCC2
→ .	100	87	89
40: Cc1ccc2nc(N3CCC(C(=O)NCc4ccc(F)cc4)CC3)[nH]c2c1
→ .	101	110	58
41: NC(=O)c1cc(-c2csc(N3CCCC3)n2)ccc1O
→ -22	.	109	60
42: Nc1nc(NC(=S)Nc2ccccc2)cc(=O)[nH]1
→ 1	96	84	102
43: O=C(CN1C(=O)CSc2ccc(C(=O)N3CCCC3)cc21)Nc1ccccn1
→ -38	104	.	.

Other records follow.
61) COc1ccc(N2CCN(S(=O)(=O)c3cc(-c4c(C)noc4C)ccc3OC)CC2)cc1
62) CN(C1CCCCC1)S(=O)(=O)c1ccc(NC(=O)C2COc3ccccc3O2)cc1 (configuration not stated)
63) O=C(CP(=O)(O)CC(=O)c1ccccc1)c1ccccc1
64) CN(C)c1ccc(CN2CCc3c([nH]c4ccccc34)C2)cc1
65) CCCn1c(Cc2ccc(OC)c(OC)c2)nc2ccccc21
66) NC(=O)CSc1nnc(COc2cccc3ccccc23)o1
67) CCOC(=O)c1noc2ncn(Cc3ccc([N+](=O)[O-])cc3)c(=O)c12
68) O=C1CCCN1CN(C(=O)c1ccccc1)c1ccccc1
69) O=C1CCc2cc(Cl)ccc21
70) CCN(CC)C(=O)CS(=O)(=O)c1ccc2c(c1)S(=O)(=O)N=CN2

Screen / compound no.	61	62	63	64	65	66	67	68	69	70
HCMV NEC inh	-19	-37	-1	7	-19	-40	.	.	-5	-4
GIV-Gai inh	102	.	.	106	97	104	103	101	108	110
Sa growth 42C	.	96	109	96	94	97	109	99	103	.
Sa growth 42C second temp	.	95	86	111	80	97	98	84	19	.

71) CC(C)N(Cc1ccccc1)C(=O)C1=CCN(S(=O)(=O)c2ccc(F)cc2)CC1
72) COc1ccc2c(c1)CCc1c(C(=O)N3C(C)CCCC3C)noc1-2 (configuration not stated)
73) CCC(c1nnc(SCc2ccc(C(=O)OC)o2)n1Cc1ccccc1)N(C)C (configuration not stated)
74) Cn1c(=O)oc2cc(NS(=O)(=O)c3cnc[nH]3)ccc21
75) CCN(CC)C(=O)C(C(F)(F)F)C(F)(F)F
76) O=C(Nc1c2c(nn1-c1ccc(Oc3ccccc3)cc1)CSC2)c1ccco1
77) CC(C)Oc1ccc(CNC(=O)c2ccc(CS(=O)c3cccc(Cl)c3)o2)cc1 (configuration not stated)
78) CC1=C(C(=O)OCCc2ccccc2)C(c2coc3ccccc3c2=O)C2=C(CC(C)(C)CC2=O)N1 (configuration not stated)
79) O=C(Nc1ccc2c(c1)CCC2)c1ccc(Cl)nc1
80) O=C(CSc1nc2ccccc2c(=O)n1CC1CCCO1)Nc1cccc(C(F)(F)F)c1 (configuration not stated)

Screen / compound no.	71	72	73	74	75	76	77	78	79	80
HCMV NEC inh	.	.	-9	-7	-4	.	.	-17	4	.
GIV-Gai inh	104	97	.	101	99	109	103	100	.	107
Sa growth 42C	94	104	105	.	79	104	99	.	88	116
Sa growth 42C second temp	87	83	101	.	96	79	50	.	88	62

81) CCN(Cc1ccncc1)C(=O)c1ccc(I)cc1
82) CCCCN(CC)C(=O)C1CCCN(c2ccc(-c3ccccc3C)nn2)C1 (configuration not stated)
83) Cc1cc2nc(Cc3ccc(F)c(F)c3)c(=O)n(C)c2cc1C
84) O=C1NC(=S)N(c2ccccc2)C(=O)/C1=C/c1cc(Br)c(N2CCOCC2)o1
85) Cc1cc(C)nc(SCCS(=O)Cc2ccc(Cl)cc2)n1 (configuration not stated)
86) O=C(CCC1CCCC1)N1CCc2c([nH]c3ccccc23)C1c1ccc(F)cc1 (configuration not stated)
87) Cc1ccc(C(C)C)c(OCC(=O)Nc2ccc(C(=O)OC3CCCCC3)cc2)c1
88) Cc1ccc(C)c(Cn2nnc(C(=O)NCc3ccccc3)c2N)c1

Screen / compound no.	81	82	83	84	85	86	87	88
HCMV NEC inh	-8	-23	-17	8	.	.	17	-13
GIV-Gai inh	.	97	103	122	102	103	103	101
Sa growth 42C	107	.	.	.	102	92	97	115
Sa growth 42C second temp	92	.	.	.	79	88	99	89
